# TRPML1 inh = qHTS for Inhibitors of the Human Mucolipin Transient Receptor Potential 1 (TRPML1); Mucolipin-1 (Homo sapiens), Q9GZU1; TRPML1-inducible cells, Ca2+ dye fluorescence, FDSS; active compounds read low; inhibition of EC80 agonist-evoked calcium signal; activity change, negative = inhibition, % (test concentration not listed); 0.02% of 390,000 active; AID 624415, 2012; in the data active means activity change below about -50%; inconclusive means about -30% to -50%; inactive means above about -30%;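 further: stimulus is agonist 54-4 at its EC80 concentration; on the % scale 0 is the no-effect control and ±100 the full control effect; compound concentration not given in the record; the text of the record puts the active cut at -80%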
# Target sequence (Q9GZU1 whole entry, looked up): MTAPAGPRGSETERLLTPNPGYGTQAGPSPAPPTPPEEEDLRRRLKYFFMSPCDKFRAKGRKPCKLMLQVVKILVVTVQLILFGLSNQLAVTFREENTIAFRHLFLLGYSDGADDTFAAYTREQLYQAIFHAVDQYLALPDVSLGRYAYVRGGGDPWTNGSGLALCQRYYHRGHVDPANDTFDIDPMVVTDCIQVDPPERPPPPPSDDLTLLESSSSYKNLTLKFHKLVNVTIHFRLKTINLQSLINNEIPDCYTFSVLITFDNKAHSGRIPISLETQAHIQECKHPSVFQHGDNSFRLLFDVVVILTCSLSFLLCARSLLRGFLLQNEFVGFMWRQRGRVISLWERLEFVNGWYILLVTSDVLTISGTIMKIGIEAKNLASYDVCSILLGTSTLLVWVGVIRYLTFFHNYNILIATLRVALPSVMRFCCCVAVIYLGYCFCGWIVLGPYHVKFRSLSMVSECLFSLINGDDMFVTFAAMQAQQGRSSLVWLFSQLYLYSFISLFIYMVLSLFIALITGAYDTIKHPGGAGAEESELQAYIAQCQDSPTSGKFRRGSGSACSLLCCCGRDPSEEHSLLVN
#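 Calcium fluorescence in TRPML1-DL cells induced overnight with Tet: a 110 s read after compound pin addition, then a 110 s antagonist read after challenge with 54-4 at 4 uM final (EC80).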
# D2 potentiator = Beta-Arrestin HTS for Positive Allosteric Modulators of the Human D2 Dopamine Receptor: Potentiators; D(2) dopamine receptor (Homo sapiens), P14416; DiscoveRx D2 beta-arrestin cells, luminescence, 90 min; 100% = 57 uM dopamine signal; potentiation, % (concentration not given with the values); 0.23% of 360,000 active; AID 624464, 2012; active = potentiation of 50% or more; inconclusive = 30% to 50%; inactive = 30% or less;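 further: compound concentration not given in the record; tested on top of an EC20 dose of dopamine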
# Target sequence (P14416 whole entry, looked up): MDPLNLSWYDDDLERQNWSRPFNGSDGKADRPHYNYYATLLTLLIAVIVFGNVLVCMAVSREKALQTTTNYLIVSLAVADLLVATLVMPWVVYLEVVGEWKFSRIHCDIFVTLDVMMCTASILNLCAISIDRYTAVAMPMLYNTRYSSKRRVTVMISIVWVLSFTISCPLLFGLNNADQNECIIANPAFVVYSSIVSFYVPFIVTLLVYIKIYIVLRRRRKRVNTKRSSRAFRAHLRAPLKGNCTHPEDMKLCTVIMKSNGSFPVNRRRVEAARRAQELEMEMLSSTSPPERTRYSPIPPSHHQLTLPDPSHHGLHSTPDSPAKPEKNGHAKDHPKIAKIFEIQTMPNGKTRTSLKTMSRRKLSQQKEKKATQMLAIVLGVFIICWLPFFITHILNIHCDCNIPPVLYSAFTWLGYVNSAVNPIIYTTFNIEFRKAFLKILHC
#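 PathHunter D2 cells, attached overnight at 37 deg C, received compound in DMSO plus dopamine at EC20 (50 nM final) for 90 min at 37 deg C. Beta-arrestin recruitment was read as luminescence after 1 h with detection reagent at ambient temperature.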
# CtBP-E1A blk = qHTS Assay for Inhibitors of the CtBP/E1A Interaction; activity change, % (no concentration beside the values); CtBP / adenovirus E1A interaction (AlphaScreen); 0.49% of 340,000 active; AlphaScreen GST-E1A/His-CtBP binding, 1536-well; active compounds read low; control for the full effect not named in the record; AID 651724, 2012; in the data active means activity change below about -65%; inconclusive means about -30% to -65%; inactive means above about -30%; further: on the % scale 0 is the no-effect control and ±100 the full control effect
#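 GST-E1A and His-tagged CtBP (125 nM each as 5X stock) were preincubated with pin-transferred compound for 2 h at 37 °C in the dark, then glutathione donor and nickel acceptor beads were added for 1 h before AlphaScreen reading.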
# TRPV1 potentiator = HTS Assay for Compounds that Act as Potentiators of the Vanilloid Receptor 1. TRPV1-expressing cells, Fluo-8 calcium influx, capsaicin EC20 potentiation; host cell line not named in the record; control for the full effect not named in the record. potentiation, % at 8.33 µM. 0.02% of 320,000 active. AID 540277, 2011; active means potentiation above 80%; inconclusive means 30% to 80%; inactive means below 30%; further: 0% is about no effect
#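 Cells expressing TRPV1 were dye-loaded with Fluo-8 and read kinetically: 10 s baseline, 3 min after compound (agonist portion), then 2 min after EC20 capsaicin (allosteric enhancer portion). Calcium-bound dye fluorescence at 480/520 nm.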
# Six1-Eya2 inh = qHTS Assay for Inhibitors of the Six1/Eya2 Interaction; AID 651725, 2012; AlphaScreen GST-Six1/His-Eya2 binding, biochemical; active compounds read low; control for the full effect not named in the record; activity change, % (concentration not given with the values); 0.56% of 360,000 active; in the data active = activity change below about -65%; inconclusive = about -30% to -65%; inactive = above about -30%; further: on the % scale 0 is the no-effect control and ±100 the full control effect
#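 Homogeneous AlphaScreen proximity assay pairing GST-Six1 with His-tagged Eya2 (added as 5X mix: 250 nM and 500 nM) in 50 mM Tris pH 8.0, 300 mM NaCl, 1 mM TCEP. Glutathione donor and nickel acceptor beads; 1 h, 37 °C, dark.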
# TRPML1 agonist = qHTS for Agonists of the Human Mucolipin Transient Receptor Potential 1 (TRPML1) | activation, % (concentration not given with the values) | TRPML1-expressing cells, Ca2+ dye fluorescence, FDSS; host cell line not named in the record; reference of the full effect not given here | AID 624414, 2012 | 0.12% of 410,000 active; in the data active = activation above about 50%; inconclusive = about 30% to 50%; inactive = below about 30%; further: 0% is about no effect; the text of the record puts the active cut at 80%
#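 TRPML1-DL cells, Tet-induced overnight (~16 h, 37 degrees C), loaded 45-90 min at room temperature with Ca8 no-wash calcium dye plus quencher. FDSS fluorescence: 10 s baseline, compound pin-transfer, 110 s agonist read, then EC80 54-4 (4uM final) and 110 s antagonist read.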
# * = called active by the depositor; ? = inconclusive; nt = no result given.
# Each structure is followed by: TRPML1 inh, D2 potentiator, CtBP-E1A blk, TRPV1 potentiator, Six1-Eya2 inh, TRPML1 agonist
COc1ccc(CN2CCN(Cc3cccc(OC)c3)C(CCO)C2)cc1 (stereo not given)
  5, -10, -13, 6, -1, 1.0
CCC(=O)N1CCc2cc(Br)c(S(=O)(=O)CCC(=O)NCCc3ccccc3)cc21
  17, -6, 0, nt, -8, -0.8
S=c1[nH]nc(-c2n[nH]c3c2CCC3)n1/N=C/C=C/c1ccco1
  0, -25, nt, nt, -1, -1.0
Cc1ccc(C2/C(=C(\O)c3cnn(-c4ccccc4)c3C)C(=O)C(=O)N2CCN(C)C)o1 (stereo not given)
  27, 9, 1, -6, -1, -0.2
Cc1csc(NC(=O)C2CCN(S(=O)(=O)c3ccccc3)CC2)n1
  -13, 1, -4, 30, -1, -0.7
CC(=Nc1ccccc1)C1=C(O)CSC1=O
  18, -7, -3, 2, 3, 1.0
Nc1cc2c3c(cccc3c1)C(=O)N(CCN1CCCC1)C2=O
  2, -8, -5, -2, 5, 7.2
Cc1nc2c3ccccc3n(Cc3ccccc3F)c2s1
  -7, -1, nt, 7, -5, -1.3
Cc1ccc(NC(=O)C2CCCO2)c(Br)c1 (stereo not given)
  2, -21, nt, nt, 6, -0.5
CN(CC(CC(=O)Nc1nncs1)c1ccccc1)S(=O)(=O)c1ccccc1 (stereo not given)
  -29, -2, -14, ?, -4, 1.8
COc1ccc(OCc2cc(C(=O)N(C)CC3CCCCO3)no2)c(Cl)c1 (stereo not given)
  35, -14, 3, 2, 1, -0.8
CCOC(=O)c1c(NC(=O)C(F)(OC)C(F)(F)F)sc2c1CCN(C)C2 (stereo not given)
  18, -7, -6, nt, 0, 1.3
COc1ccc2oc(C)c(NC(C)=O)c2c1
  7, -6, 2, 7, 4, -1.0
COc1ccccc1-c1nnc(SCC(=O)NC2CCCCC2)n1C
  -10, -3, -10, 6, -8, 1.0
O=C(Nc1nnc(-c2ccccc2)o1)Nc1ccc(F)cc1F
  19, -10, 3, -16, 12, 2.5
CC(=O)C1=C(C)NC(=O)CC1c1ccccc1Cl (stereo not given)
  3, -3, -6, 8, -6, -0.2
COC(=O)C1=C(C)n2nnnc2NC1c1ccc(Cl)cc1 (stereo not given)
  -22, -13, -7, 1, 0, 1.3
Cc1csc(C(C#N)C(=O)c2cc3ccccc3o2)n1 (stereo not given)
  -6, -9, -6, 12, -2, 2.8
COc1ccc(OC)c(NC(=O)Nc2ccc(Cl)cc2)c1
  -4, -27, -22, -5, -23, -0.3
COc1cc(C(=O)C(O)c2ccc(O)c(OC)c2)ccc1O (stereo not given)
  14, -17, 9, nt, 5, 0.3
C1COCCNCCOCCOCCOCCN1
  5, -14, -7, 9, 5, 0.2
CN(CCc1ccccc1)C(=O)c1ccc(NC(=O)Cc2cccc(NC(=O)C3CCN(C(=O)c4ccccc4)CC3)c2)cc1
  3, 1, 1, nt, -3, 3.3
Cc1cccc(C)c1NC(=O)CSc1nnc(-c2ccoc2C)n1CCc1ccccc1
  13, 9, -1, -3, -2, -0.5
Cc1ccc2cc(CCNC(=O)c3cccs3)c(=O)[nH]c2c1
  24, -6, 0, ?, 3, -0.6
CC(C)(C)C(=O)Nc1cccc(-c2nc3ccccc3[nH]2)c1
  40, -7, 1, ?, 0, -0.3
COc1cccc(OCCn2c(C)c(/C=N/n3cnnc3)c3ccccc32)c1
  11, 4, -3, -2, -11, -0.1
N#Cc1ccc2nc3c(nc2c1)CCCC3
  -19, 6, -28, -10, ?, 0.5
CC(=O)Nc1sc2c(c1C(c1ccccc1Cl)N1CCN(CCO)CC1)CCCC2 (stereo not given)
  -2, -17, -8, -2, -13, 0.3
COc1ccc2cc(-c3[nH]ncc3CNCCn3nc(C)cc3C)ccc2c1
  -3, -19, 2, -6, -4, 0.7
Cc1cc2c(c(SCC(=O)NCCc3ccccc3)n1)C(=O)OC2
  -6, -13, 2, 1, 1, -0.7
COCCCN1C(=O)C(O)=C(C(C)=O)C1c1cccc(F)c1 (stereo not given)
  12, -13, 3, -11, 2, -0.5
COC(=O)c1ccccc1NS(=O)(=O)c1ccc(F)cc1
  -9, -10, 6, 2, 6, 3.0
CN1C(=O)[C@H]2[C@@H](c3ccc(C(F)(F)F)cc3)N[C@]3(CCCN(Cc4cccn4C)C3=O)[C@H]2C1=O
  -8, -2, -4, nt, -2, -0.6
COc1ccc(C(=O)Nc2cc(-c3nn4c(C)nnc4s3)ccc2C)cc1
  -1, 3, 3, nt, -2, 0.7
O=C(c1ccc(Cl)cc1)N1C2C=CC(C2)C1(C(F)(F)F)C(F)(F)F (stereo not given)
  15, -27, 5, 2, -6, -0.4
CCOc1ccc(S(=O)(=O)NCCC(=O)NCC(c2cccs2)N2CCOCC2)cc1 (stereo not given)
  -1, 3, -3, 9, -1, 0.8
COc1cc(/C=C/C(=O)N2CCN(C)CC2)cc(S(=O)(=O)N2CCc3ccccc32)c1OC
  nt, -11, 5, -6, 0, nt
CC/C(Cc1ccccc1)=N/NC(=O)c1cccc(Br)c1
  -21, -16, -1, -4, -6, 0.9
COc1ccccc1NS(=O)(=O)c1cccc(NC(=O)CCNC(=O)c2ccccc2OC)c1
  -11, -14, nt, 6, 0, -0.9
CC(NC(=O)c1ccc(N2CCNCC2)c([N+](=O)[O-])c1)C12CC3CC(CC(C3)C1)C2 (stereo not given)
  3, -7, -14, 4, 0, 2.7
CCOC(=O)N1CCN(S(=O)(=O)c2ccc(OCC)c(C)c2)CC1
  9, -1, -7, 8, 2, 0.7
Cc1cc2c(NS(=O)(=O)c3ccc(F)cc3)cccc2nn1
  13, -11, -19, 7, -11, 0.2
O=C(Nc1ccc2c(c1)OCCO2)c1ccccc1F
  26, -26, 4, -41, -1, -0.9
CC(=O)/C=C(\C)Nc1ccc(-c2cnc(-c3ccccc3)o2)cc1
  5, 4, 1, 1, 2, -0.2
N#Cc1cccc(NC(=O)NCCc2c[nH]c3ccccc23)c1
  23, 0, -3, -12, -3, -0.7
c1ccc2c(CCc3ccncc3)cccc2c1
  -9, -12, 24, nt, 15, 2.4
CN1CC[C@]2(CCN3CCc4c(oc5ccccc45)[C@@H]3C2)N(C)C1=O
  9, -33, 5, -3, 5, -0.1
COc1ccc(C(=O)Nc2ccccc2C(=O)N2CCCCCC2)cc1OC
  -16, -4, 3, -15, 6, 0.2
O=c1[nH]c(C2CCN(S(=O)(=O)c3ccc([N+](=O)[O-])cc3)CC2)nc2c1nnn2Cc1ccccc1
  -11, 1, 5, -3, 1, -0.3
C#CCNC(=O)C1=C[C@@H](c2coc3ccccc3c2=O)[C@H](CCCO)[C@@H](OCC)O1
  -1, -4, 4, 25, 7, -0.6
Cn1c(C(=O)N2CCC(C(=O)N3CCOCC3)CC2)cc2sccc21
  -10, -4, -2, -27, 3, -0.3
COc1ccc2ccccc2c1-c1sc(Nc2ccccc2)n[n+]1-c1ccc(F)cc1
  47, -31, nt, -19, -29, 9.5
CCn1c(CCCCc2n[nH]c(=S)n2CC)n[nH]c1=S
  23, -6, -5, 7, 3, 0.5
COc1ccc(NC(=S)NC(=O)c2cncc(Br)c2)cc1
  -14, -18, -3, nt, 2, 0.2
COCCCNS(=O)(=O)c1ccc(Oc2ncc(C(F)(F)F)cc2Cl)cc1
  -3, -1, 13, 2, 0, 0.3
O=C(c1cccc(S(=O)(=O)N2CCOCC2)c1)N1CCN(Cc2ccc3c(c2)OCO3)CC1
  -2, -3, 0, 6, 6, 0.8
COc1ccc(CNC(=O)C2CCCN2S(=O)(=O)c2ccc(C)cc2)cc1 (stereo not given)
  2, 5, 4, -4, 5, 0.4
CCn1nc(C)c(/C=N/NC(=O)c2c[nH]c3ccccc23)c1C
  -11, 4, 0, 27, -4, 2.5
Cc1ccc(-n2ncc3c(NCCCOC(C)C)ncnc32)c(C)c1
  23, 11, -7, ?, 7, 0.2
COC(=O)c1ccccc1-c1ccc(/C=C2\C(=O)N(c3ccccc3)N=C2c2ccccc2)o1
  -8, -16, 7, 9, -23, -0.4

# Some of the entries above, reformatted.
molecule	TRPML1 inh	D2 potentiator	CtBP-E1A blk	TRPV1 potentiator	Six1-Eya2 inh	TRPML1 agonist
CC(=O)/C=C(\C)Nc1ccc(-c2cnc(-c3ccccc3)o2)cc1	5	4	1	1	2	-0.2
N#Cc1cccc(NC(=O)NCCc2c[nH]c3ccccc23)c1	23	0	-3	-12	-3	-0.7
c1ccc2c(CCc3ccncc3)cccc2c1	-9	-12	24	nt	15	2.4
CN1CC[C@]2(CCN3CCc4c(oc5ccccc45)[C@@H]3C2)N(C)C1=O	9	-33	5	-3	5	-0.1
COc1ccc(C(=O)Nc2ccccc2C(=O)N2CCCCCC2)cc1OC	-16	-4	3	-15	6	0.2
O=c1[nH]c(C2CCN(S(=O)(=O)c3ccc([N+](=O)[O-])cc3)CC2)nc2c1nnn2Cc1ccccc1	-11	1	5	-3	1	-0.3
C#CCNC(=O)C1=C[C@@H](c2coc3ccccc3c2=O)[C@H](CCCO)[C@@H](OCC)O1	-1	-4	4	25	7	-0.6
Cn1c(C(=O)N2CCC(C(=O)N3CCOCC3)CC2)cc2sccc21	-10	-4	-2	-27	3	-0.3
COc1ccc2ccccc2c1-c1sc(Nc2ccccc2)n[n+]1-c1ccc(F)cc1	47	-31	nt	-19	-29	9.5
CCn1c(CCCCc2n[nH]c(=S)n2CC)n[nH]c1=S	23	-6	-5	7	3	0.5
COc1ccc(NC(=S)NC(=O)c2cncc(Br)c2)cc1	-14	-18	-3	nt	2	0.2
COCCCNS(=O)(=O)c1ccc(Oc2ncc(C(F)(F)F)cc2Cl)cc1	-3	-1	13	2	0	0.3
O=C(c1cccc(S(=O)(=O)N2CCOCC2)c1)N1CCN(Cc2ccc3c(c2)OCO3)CC1	-2	-3	0	6	6	0.8
COc1ccc(CNC(=O)C2CCCN2S(=O)(=O)c2ccc(C)cc2)cc1 (stereo not given)	2	5	4	-4	5	0.4
CCn1nc(C)c(/C=N/NC(=O)c2c[nH]c3ccccc23)c1C	-11	4	0	27	-4	2.5
Cc1ccc(-n2ncc3c(NCCCOC(C)C)ncnc32)c(C)c1	23	11	-7	?	7	0.2
COC(=O)c1ccccc1-c1ccc(/C=C2\C(=O)N(c3ccccc3)N=C2c2ccccc2)o1	-8	-16	7	9	-23	-0.4

# 3 entries already listed, arranged by count of non-hydrogen atoms, ascending:
# Each structure is followed by: TRPML1 inh, D2 potentiator, CtBP-E1A blk, TRPV1 potentiator, Six1-Eya2 inh, TRPML1 agonist
Cc1cc2c(NS(=O)(=O)c3ccc(F)cc3)cccc2nn1
  13, -11, -19, 7, -11, 0.2
CCn1nc(C)c(/C=N/NC(=O)c2c[nH]c3ccccc23)c1C
  -11, 4, 0, 27, -4, 2.5
CN1CC[C@]2(CCN3CCc4c(oc5ccccc45)[C@@H]3C2)N(C)C1=O
  9, -33, 5, -3, 5, -0.1
